A488 fluor = A488 region autofluorescence. compound autofluorescence, A488 spectral region, dye equivalency; stronger effect = higher value. max dye equivalency, M. actives 0.1% (n = 59,000); active = above 10 nM dye equivalent; inconclusive = 1 to 10 nM; inactive = 1 nM or less; about half of its hits are not listed in these tables;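 note: highest value over a series up to 38 µM; compound alone in buffer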
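Compounds pin-transferred into 100 mM Tris buffer, pH 8.0, incubated 15 min at room temperature, then imaged with 480 nm excitation/540 nm emission filters. Fluorescence converted to Alexa 488 dye-equivalent concentration via an on-plate six-point A488 standard curve.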
TSHR ag = TSH receptor (human) agonism; actives 0.48% (n = 73,000); Potency, µM (series often up to 57.1 µM), without a hit: at the top dose activation, usual class: activators; AID 926; HEK293-CNG-TSHR cells (CNG channel as cAMP sensor), membrane potential dye, cAMP; active = well fitted activation curve of enough size with the parental cells flat; inconclusive = any curve in the parental cells; inactive = parental cells flat and receptor cells flat or falling; note: potency is the fitted concentration of half-maximal effect; % of control where 0% means no effect; weak receptor curves with flat parental cells got no call and are not listed
Target sequence (P16473 whole entry, looked up): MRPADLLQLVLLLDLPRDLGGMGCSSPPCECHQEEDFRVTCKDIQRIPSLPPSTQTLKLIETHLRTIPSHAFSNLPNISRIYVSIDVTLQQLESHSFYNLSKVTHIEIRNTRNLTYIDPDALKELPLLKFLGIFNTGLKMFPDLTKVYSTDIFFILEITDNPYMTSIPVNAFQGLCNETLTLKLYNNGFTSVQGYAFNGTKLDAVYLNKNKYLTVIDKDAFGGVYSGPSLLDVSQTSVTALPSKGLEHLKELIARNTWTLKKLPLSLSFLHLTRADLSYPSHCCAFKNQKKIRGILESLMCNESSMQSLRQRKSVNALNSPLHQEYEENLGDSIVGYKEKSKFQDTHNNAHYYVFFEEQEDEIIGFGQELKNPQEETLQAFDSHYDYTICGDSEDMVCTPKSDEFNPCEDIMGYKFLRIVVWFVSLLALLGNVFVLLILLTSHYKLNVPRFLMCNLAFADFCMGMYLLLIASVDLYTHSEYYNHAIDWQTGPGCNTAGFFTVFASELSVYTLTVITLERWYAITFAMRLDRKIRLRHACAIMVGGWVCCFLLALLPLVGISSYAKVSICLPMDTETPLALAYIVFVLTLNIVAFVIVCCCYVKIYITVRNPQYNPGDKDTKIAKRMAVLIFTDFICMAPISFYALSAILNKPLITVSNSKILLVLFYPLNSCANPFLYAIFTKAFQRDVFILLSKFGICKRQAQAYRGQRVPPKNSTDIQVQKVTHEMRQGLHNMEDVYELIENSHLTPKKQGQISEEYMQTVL
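HEK 293 cells stably expressing TSHR and a modified CNG channel, with CNG-only parental cells as counterscreen, were preloaded 60 min at room temperature with membrane potential dye containing 100 uM RO 20-1724. Compound exposure was 30 min, and depolarization was read as fluorescence at 590 nm.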
AID923 = qHTS Assay for Allosteric/Competitive Inhibitors of Caspase-1: Spectroscopic Profiling in AFC Spectral Region; compound fluorescence, AFC spectral region (405/520 nm); almost no hit is shown here; Potency, µM (titrated, usually from 57.5 µM), for inactives: at the highest dose fluorescence increase, actives largely listed as activators; actives 1.1% (n = 75,000); active = well fitted activation curve with a large enough effect; inconclusive = small, poorly fitted or top-dose-only effect;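 note: potency is the fitted concentration of half-maximal effect; 0% is about no effect; scaled to a free AFC standard on each plate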
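Baseline compound fluorescence (AFC region, 405 nm ex/520 nm em) taken from the intercept of kinetic reads with 50 nM caspase-1 and 5 uM Ac-WEHD-AFC; normalized to an on-plate AFC standard curve; compounds titrated up to 57 uM.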
Resorufin fluor = compounds fluorescent in resorufin spectral region. actives 0.04% (n = 59,000). max dye-equivalent concentration, M. Compound fluorescence, resorufin region 547/598 nm, buffer; stronger effect = higher value; active = above 10 nM dye equivalent; inconclusive = 1 to 10 nM; inactive = 1 nM or less; a few of its hits are not listed in these tables; note: highest value over a series up to 38 µM
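Tris 100 mM pH 8.0; compound added, 15 min RT; CCD imager read, ex 547 nm/em 598 nm; signal normalized to resorufin standard curve (six concentrations per plate) as dye-equivalent concentration.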
A647 autofl = compound autofluorescence in A647 spectral region; Compound fluorescence, A647 channel (570/671 nm), Tris buffer; max dye-equivalent concentration, M; 59,000 tested, under 10 active; AID 592; active means above 1 µM dye equivalent; inconclusive means 0.1 to 1 µM; inactive means 0.1 µM or less;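 note: values scaled relative to a standard on each plate; highest value over a series up to 38 µM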
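Fluorescence read (570 nm ex, 671 nm em) after 15 min RT incubation of compounds in 100 mM Tris buffer, pH 8.0; values expressed as dye-equivalent concentration against a six-point A647 standard series on each plate.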
* marks the source's active call; other numbers are inactive results; i = inactive; ? = inconclusive; . = no result given; [ ] = another dose, or the depositor's remark. The list is partial; the hit share may differ from the screen's.

| SMILES | A488 fluor | TSHR ag | AID923 | Resorufin fluor | A647 autofl |
| --- | --- | --- | --- | --- | --- |
| CC(C)C(=O)Nc1ccc(NC(=O)c2ccccn2)cn1 | i | 0% | -1.4% | i | 1.1e-08 |
| CCOC(=O)N1CCN(Cc2nc(-c3ccc(OC)cc3)no2)CC1 | i | 6% | 1.7% | i | 1e-09 |
| CCOC(=O)C[C@@H](C(=O)OCC)[C@@H]1CCCCC1=O | . | 6%[11.4 µM] | -2.8%[11.5 µM] | . | . |
| CCC(=O)N1CCc2cc(S(=O)(=O)NCCC(=O)NC3CCCc4ccccc43)ccc21 (configuration not stated) | i | 16% | -2.5% | i | 1.9e-09 |
| Cc1ccc(-n2ncc(C#N)c2/N=C/N2CCN(C)CC2)cc1 | i | -6% | 1.0% | i | 1e-09 |
| COc1ccccc1NC(=O)C1CCN(c2ncccn2)CC1 | i | -5% | -0.7% | i | 5.4e-08 |
| S=c1[nH]nc(Cc2c[nH]c3ccccc23)o1 | i | 19% | -1.2% | i | 1e-09 |
| c1ccc(-c2ccc(-c3nc(-c4cccnc4)no3)cc2)cc1 | . | -5% | -0.9% | . | . |
| O=C(c1cc(-c2ccncc2)nc2ccc(Cl)cc12)N1CCN(C(=O)C2CCCO2)CC1 (configuration not stated) | i | -1% | 0.4% | i | 1.5e-08 |
| CSCC[C@H](NC(=O)NCCc1ccc(F)cc1)C(=O)O | i | 10% | 1.4% | i | 8e-09 |
| C=CCNc1ccc(F)c(F)c1N1CCCCCC1=O | i | 4% | -0.7% | i | 8.7e-09 |
| CCOC(=O)Cn1c(CN2CCc3ccccc3C2)nc2c1c(=O)n(C)c(=O)n2C | . | -9% | -1.7% | . | . |
| CCOC(=O)c1ccc(N=c2sc(C(=O)OC)cc(=O)n2C2CC2)cc1 | i | -7% | 1.8% | i | 1e-09 |
| CN(C)S(=O)(=O)c1ccc(C(=O)NCc2ccccc2)cc1 | i | -1% | -0.9% | i | 2.4e-08 |
| O=C(O)CSC1CC(=O)N(c2cccc(Cl)c2)C1=O (configuration not stated) | i | 3% | -0.4% | i | 2.6e-09 |
| O=C(c1ccco1)N1CCN(C(=O)N2CCOCC2)CC1 | . | -5% | -0.7% | . | . |
| CCOc1ccccc1NC(=O)NC1CC2CCCC(C1)N2Cc1nnnn1CCc1ccccc1 (configuration not stated) | i | -2% | 0.9% | i | 1e-09 |
| COC(=O)C(O)(NC(=O)OCc1ccccc1)C(F)(F)F (configuration not stated) | i | 3% | 0.8% | i | 2e-08 |
| O=C(NC1CCSC1=O)c1ccc(Cl)cc1 (configuration not stated) | . | 6%[11.4 µM] | 0.7% | . | . |
| COc1ccc(-n2c(=O)c3ccccc3n(CC(=O)NC3CCCCC3)c2=O)c(OC)c1 | i | 4% | 1.0% | i | 1e-09 |

Record cards (already shown).
`CN(C)S(=O)(=O)c1ccc(C(=O)NCc2ccccc2)cc1` reads A488 fluor: i; TSHR ag: -1%; AID923: -0.9%; Resorufin fluor: i; A647 autofl: 2.4e-08
`O=C(NC1CCSC1=O)c1ccc(Cl)cc1` (configuration not stated) reads A488 fluor: .; TSHR ag: 6%[11.4 µM]; AID923: 0.7%; Resorufin fluor: .; A647 autofl: .

Next section:
| SMILES | A488 fluor | TSHR ag | AID923 | Resorufin fluor | A647 autofl |
| --- | --- | --- | --- | --- | --- |
| O=C(CSc1nnc(Cc2ccccc2)o1)NCCN1C(=O)CSC1=O | i | -1% | 0.0% | i | 3.7e-08 |
| COc1cccc(C(=O)N(Cc2cc3cc(C)ccc3[nH]c2=O)C(C)C)c1 | i | 17% | -0.8% | i | 5.3e-09 |
| c1ccc2c(SCc3cn4cccnc4n3)ncnc2c1 | i | -1% | 0.1% | i | 1e-09 |
| CC(=O)c1cccc(NC(=O)CCNS(=O)(=O)c2cccc(C(C)=O)c2)c1 | i | -1% | 0.2% | i | 1e-09 |
| C=CCn1c(COc2cccc3ccc(C)nc23)nnc1SCC(=O)O | i | 3% | -0.6% | i | 1e-09 |
| CSCCC1NC2(C(=O)Nc3c(C)cc(Cl)cc32)[C@@H]2C(=O)N(C3CCCC3)C(=O)[C@H]12 (some centres not stated) | i | -28% | -0.7% | i | 2.6e-08 |
| Cc1cccc(CSc2nncc(=O)[nH]2)c1 | i | 22% | -0.7% | i | 2.6e-08 |
| CCOC(=O)c1ccc(N2C(=O)c3n[nH]c(C)c3C2c2ccco2)cc1 (configuration not stated) | i | . | 0.5% | i | 3.1e-09 |
| Nc1cc(-c2ccc(Br)cc2)[nH]n1 | . | -4% | -0.2% | . | . |
| Cn1nc(CC(=O)Nc2cccc3ncccc23)c2ccccc2c1=O | i | 10% | -0.7% | i | 1.1e-08 |
| O=C(CN1CCN(Cc2ccccc2)C1=O)NCc1ccc(Cl)cc1 | i | 0% | 0.2% | i | 1e-09 |
| CCCN1C(=O)c2cc(C(=O)NCCc3cccc(C)c3)ccc2C1O (configuration not stated) | . | 11% | 0.9% | . | . |
| CCn1c(SCC(=O)Nc2oc(-c3ccccc3)c(-c3ccccc3)c2C#N)nnc1-c1ccco1 | i | 21% | 2.9% | i | 1e-09 |
| NC(=O)CSc1nnc(-c2ccncc2)n1-c1ccc(Cl)cc1 | . | -6% | -2.8% | . | . |
| COc1ccc(CCNC(=O)CN2C(=O)c3ccccc3S2(=O)=O)cc1OC | i | -9% | 2.1% | i | 2.2e-08 |
| Cc1ccc(CN2CCN(CC(=O)N3CCC(C(N)=O)CC3)C2=O)cc1 | . | -1% | 1.6% | . | . |
| Nc1nc(-c2ccc(Br)cc2)cs1 | i | -5% | 0.0% | i | 3.8e-09 |
| CC1CN(c2nc3c(c(=O)n(Cc4ccc(Cl)c(Cl)c4)c(=O)n3C)n2C)CC(C)O1 (configuration not stated) | i | . | -1.4% | i | 6.4e-09 |
| CC(/C=C/c1ccccc1)=N/O | . | -6% | 2.3% | . | . |
| COc1ccc(N2CCN(C(=O)CSc3nnc4ncccn34)CC2)cc1 | i | -3% | 0.5% | i | 1.8e-08 |
| Cc1ccc(Cn2ccc(NC(=O)c3cc(-c4ccccc4)on3)n2)cc1 | i | ? | 0.7% | i | 5.5e-09 |
| Cc1ccc2[nH]c(=O)c(CN(CCN3CCOCC3)C(=O)Nc3ccc(F)cc3)cc2c1 | i | 12% | 0.5% | i | 3.4e-08 |
| O=S(=O)(c1ccc2c(c1)oc1ccccc12)N1CCOCC1 | i | . | 1.5% | i | 2.3e-08 |
| COc1cc(OC)c(NC(=O)CCNC(=O)Cn2cnc3ccccc3c2=O)cc1Cl | i | 1% | -3.6% | i | 1.3e-08 |
| CCn1c(SCC(=O)NCCc2ccc(F)cc2)nnc1-c1cccs1 | i | 11% | 0.6% | i | 1e-09 |
| O=C(NCc1ccco1)c1cnn2c(C(F)(F)F)cc(-c3ccco3)nc12 | i | . | . | i | 3.5e-08 |
| CC1CCCCC1NC(=O)COC(=O)c1ccc(S(=O)(=O)N2CCOCC2)cc1 (configuration not stated) | i | -6% | -1.5% | i | 2.8e-08 |
| COc1ccc(N2CCN(Cc3nc(N)nc(N4CCCc5ccccc54)n3)CC2)cc1 | i | . | 1.1% | i | 1.4e-09 |
| C=CCn1c(SCC(=O)Nc2cc(C)nn2-c2ccccc2)nnc1C1CCCCC1 | i | ? | 0.2% | i | 3.8e-08 |
| CCOC(=O)CSc1nc2c(c(=O)n(C)c(=O)n2C)n1Cc1ccccc1F | . | 12% | 2.3% | . | . |
| COCCNC(=O)C(c1ccco1)N(Cc1ccc(OC)cc1)C(=O)Cn1nnc2ccccc21 (configuration not stated) | i | -4% | -0.1% | i | 2.3e-09 |
| Cn1cnnc1SCc1ccccc1Br | i | 3% | 1.3% | i | 6.9e-09 |
| COc1cccc(C2c3c(oc4ccccc4c3=O)C(=O)N2c2ccccn2)c1 (configuration not stated) | . | 6% | -2.1% | . | . |
| CCOc1cccc(-c2nnc3sc(COc4ccccc4)nn23)c1 | i | . | . | i | 1.1e-08 |
| NC(=O)CSc1nnc(Cn2c(=O)sc3ccccc32)n1-c1cccc(Cl)c1 | i | -1% | -0.1% | i | 1e-09 |
| CC(C)Oc1snc(Cl)c1C(N)=O | i | -1% | 0.0% | i | 9.3e-09 |
| COc1ccc(S(=O)(=O)NC(CC(=O)NC2CCCC2)c2ccco2)cc1 (configuration not stated) | i | 2% | -1.0% | i | 1.9e-08 |
| O=c1c2cnn(-c3ccccc3)c2ncn1Cc1ccccc1F | . | 8% | 0.5% | . | . |
| C=CCn1c(Cc2c[nH]c3ccccc23)n[nH]c1=S | i | -2% | 1.0% | i | 3.4e-08 |
| CC(=O)c1cc2c(cc1NC(=O)C1CC=CCC1C(=O)O)OCO2 (configuration not stated) | i | ? | -0.6% | i | 3.2e-09 |
| Cn1c(SCc2nc3ccccc3[nH]2)nnc1-c1cnccn1 | i | -4% | 0.7% | i | 2.7e-08 |
| Clc1cccc(Cl)c1-c1nnc2ccc(N3CCOCC3)nn12 | i | . | 0.6% | i | 1.9e-09 |
| Cc1cc(C)n2nc(NCc3ccccc3)nc2n1 | i | ? | -0.5% | i | 1e-09 |
| CCOc1ccc(NC(=O)N2CCN(CC)CC2)cc1 | i | 5% | 2.4% | i | 1.6e-09 |
| COc1ccc(C2Nc3ccccc3C(=O)N2Cc2ccco2)cc1CN1C(=O)c2ccccc2C1=O (configuration not stated) | i | . | . | i | 1e-09 |
| CS(=O)(=O)N(CC(=O)O)Cc1ccccc1 | i | -8%[11.4 µM] | -1.2%[11.5 µM] | i | 4.6e-08 |
| CC(=O)N(c1cccc(C)c1)C1SC(=O)N(c2ccccc2)C1=O (configuration not stated) | i | 6% | -0.2% | i | 1.5e-08 |
| CN(Cc1nc(-c2ccccn2)no1)S(=O)(=O)c1ccc(Cl)cc1 | i | -4% | 1.3% | i | 2.3e-08 |
| CNc1nc(C)c(C#N)cc1C(C)=O | i | . | . | i | 1e-09 |
| O=C(O)c1ccc(F)c(S(=O)(=O)Nc2cccc(F)c2)c1 | . | -6% | -1.0% | . | . |

Next entries follow:
| SMILES | A488 fluor | TSHR ag | AID923 | Resorufin fluor | A647 autofl |
| --- | --- | --- | --- | --- | --- |
| Nn1c(SCc2ccccc2)nnc1-c1ccco1 | . | -3% | 3.7% | . | . |
| CNc1ncncc1-c1ccccc1C(F)(F)F | i | 0% | 0.7% | i | 1.6e-09 |
| CC(C)N(C(=O)Cn1c(SCC(=O)N2CCN(c3ccccc3)CC2)nc2ccccc21)C(C)C | i | 0% | 0.9% | i | 1e-09 |
| COc1cc2c(cc1OC)-c1cc(NC3CC3)nc(=O)n1CC2 | i | 28% | -0.9% | i | 1.6e-08 |
| CN(Cc1ccccc1)Cc1nc2c([nH]1)c(=O)[nH]c(=O)n2C | i | 3% | 0.6% | i | 1.3e-09 |
| N#C/C(=C(/O)COC(=O)CCc1ccc(S(=O)(=O)N2CCOCC2)cc1)c1nc2ccccc2[nH]1 | i | -8% | 13% | i | 1e-09 |
| Cc1cccn2cc(-c3ccc(F)cc3)nc12 | . | 5% | 2.8% | . | . |
| CC(O)C(O)C(O)C(O)C1NCCS1 (configuration not stated) | i | -2% | -0.6% | i | 7.1e-09 |
| O=C(CSc1ncn(-c2ccccc2)n1)Nc1ccc(Br)cn1 | i | ? | 0.7% | i | 1e-09 |
| CCOC(=O)N1CCN(CC(O)COC2CC(C)CC(C)(C)C2)CC1 (configuration not stated) | i | 3%[11.4 µM] | -1.6% | i | 1.7e-08 |
| COc1ccc(C)c(S(=O)(=O)Nc2ccc(OCC(=O)O)cc2)c1 | . | ? | -0.3% | . | . |
| CCOc1ccc(CCN2C(=O)CCC2(C)C(=O)NC(C)CC)cc1OCC (configuration not stated) | i | -1% | 0.6% | i | 4.2e-09 |
